Compound activity from PubChem BioAssay.
Vaccinia stage: blocks a specific stage of Vaccinia orthopoxvirus infection, primary screen, cell-based, single point. Vaccinia-infected cells, mCherry/Venus stage reporter fluorescence; hits give low values; some inactives read as strong as hits. activity change (mCherry), % (test concentration not listed). 89,000 tested, 0.01% active;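 active = mCherry past -33% and 40 or more points under the early reporter, replicates agreeing; inconclusive = past -33% without that gap or agreement; tested in A549 cells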;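 note: scaled between vehicle wells and reference inhibitor wells; 23 nL library stock went into each well; one replicate is shown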
Vaccinia stage Venus: also measured in Vaccinia stage; calls as there; activity change (Venus), %; measured here: Venus reporter, other viral stage;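 negative = less Venus signal; first of two replicates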
Numbers without * were called inactive; ? = inconclusive; . = no result given.

SMILES	Vaccinia stage	Vaccinia stage Venus
C[C@H](CO)N1C[C@H](C)[C@@H](CN(C)Cc2ccc(C(F)(F)F)cc2)Oc2ccc(NC(=O)CCC(F)(F)F)cc2CC1=O	?	.
Cc1ccc(S(=O)(=O)Nc2ccc3c(c2)C(=O)N([C@@H](C)CO)C[C@@H](C)[C@@H](CN(C)CC2CC2)OCCCC[C@@H](C)O3)cc1	?	.
O=C(C[C@@H]1CC[C@H](NC(=O)c2ccncc2)[C@@H](CO)O1)NCc1ccncn1	15	12
C[C@H]1CN([C@@H](C)CO)C(=O)c2cccc(NS(=O)(=O)c3ccccc3)c2O[C@H]1CN(C)S(=O)(=O)c1ccccc1	12	5
COc1cccc(S(=O)(=O)N[C@H]2CC[C@@H](CCNC(=O)Cc3ccncc3)O[C@H]2CO)c1	-4	0
O=C(C1CC1)N1CC(=O)N2[C@H](C1)[C@@H](c1ccc(Br)cc1)[C@@H]2CO	-10	-6
COc1cccc(S(=O)(=O)N[C@H]2CC[C@@H](CCn3cc(-c4ccc(F)cc4)nn3)O[C@@H]2CO)c1	-15	-4
O=C([C@H]1N[C@H]2c3ccc(/C=C/c4ccccc4)c(=O)n3C[C@H]2[C@@H]1CO)N1CCCCC1	-6	5
C[C@@H]1CCCCO[C@@H](CN(C)S(C)(=O)=O)[C@H](C)CN([C@H](C)CO)C(=O)c2cc(NC(=O)C3CCCCC3)ccc2O1	10	10
COc1ccc(S(=O)(=O)N(C)C[C@@H]2Oc3ccc(NS(=O)(=O)c4c(C)noc4C)cc3CC(=O)N([C@@H](C)CO)C[C@H]2C)cc1	16	3
N#Cc1cccc(-c2ccc(C3[C@@H]4CN(C(=O)C5CC5)C[C@H]3N4)cc2)c1 (some centres undefined)	?	-16
C[C@H](CO)N1C[C@H](C)[C@H](CN(C)S(=O)(=O)c2cn(C)cn2)Oc2c(NC(=O)NC3CCCCC3)cccc2C1=O	-2	1

Next section, starting with the last 5 of the part before.
SMILES	Vaccinia stage	Vaccinia stage Venus
O=C([C@H]1N[C@H]2c3ccc(/C=C/c4ccccc4)c(=O)n3C[C@H]2[C@@H]1CO)N1CCCCC1	-6	5
C[C@@H]1CCCCO[C@@H](CN(C)S(C)(=O)=O)[C@H](C)CN([C@H](C)CO)C(=O)c2cc(NC(=O)C3CCCCC3)ccc2O1	10	10
COc1ccc(S(=O)(=O)N(C)C[C@@H]2Oc3ccc(NS(=O)(=O)c4c(C)noc4C)cc3CC(=O)N([C@@H](C)CO)C[C@H]2C)cc1	16	3
N#Cc1cccc(-c2ccc(C3[C@@H]4CN(C(=O)C5CC5)C[C@H]3N4)cc2)c1 (some centres undefined)	?	-16
C[C@H](CO)N1C[C@H](C)[C@H](CN(C)S(=O)(=O)c2cn(C)cn2)Oc2c(NC(=O)NC3CCCCC3)cccc2C1=O	-2	1
CN1C(=O)c2cc(NC(=O)c3ccccc3F)ccc2OC[C@H]2O[C@@H](CC(=O)NCc3ccc4c(c3)OCO4)CC[C@@H]21	12	15
CNC[C@@H]1OCCCC[C@H](C)Oc2ccc(NC(=O)Nc3ccc(C(F)(F)F)cc3)cc2C(=O)N([C@@H](C)CO)C[C@@H]1C	-25	-16
O=S(=O)(c1ccccc1)N1CC[C@@H]2[C@H](CO)Nc3ccc(C#Cc4cccc(F)c4)cc3[C@@H]21	-27	-19
C[C@H](NC(=O)C[C@@H]1CC[C@H](NC(=O)C2CC2)[C@H](CO)O1)c1ccccc1	3	4
COc1ccc(CN(C)C[C@H]2Oc3c(NS(=O)(=O)c4ccc(F)cc4)cccc3C(=O)N([C@H](C)CO)C[C@@H]2C)cc1	11	17
O=C(C[C@H]1C[C@H]2c3cc(NC(=O)NC4CCCC4)ccc3O[C@H]2[C@@H](CO)O1)NCc1ccccc1	-3	-2
Cc1ccc(S(=O)(=O)Nc2ccc3c(c2)C(=O)N([C@H](C)CO)C[C@@H](C)[C@@H](CN(C)C(=O)Nc2c(C)noc2C)O3)cc1	1	-5
C[C@H](CO)N1C[C@H](C)[C@@H](CN(C)C(=O)Nc2ccc(C(F)(F)F)cc2)Oc2ccc(NC(=O)Nc3ccc4c(c3)OCO4)cc2CC1=O	4	8
N#C[C@H]1[C@@H](c2ccccc2-c2ccccc2)[C@H](CO)N1C(=O)Cc1ccncc1	-21	-10
Cc1ccccc1S(=O)(=O)NCC[C@@H]1CC[C@H](NC(=O)C2CC2)[C@H](CO)O1	12	7
Cc1ccc(S(=O)(=O)N(C)C[C@H]2OCCCC[C@@H](C)Oc3ccc(NS(=O)(=O)c4ccccc4)cc3C(=O)N([C@H](C)CO)C[C@H]2C)cc1	?	.
COCC#Cc1ccc2c(c1)O[C@H](CN(C)C(C)=O)[C@@H](C)CN([C@@H](C)CO)S2(=O)=O	24	15

Full records, looked up by structure. Order of values: Vaccinia stage	Vaccinia stage Venus
`Cc1ccc(S(=O)(=O)N(C)C[C@H]2OCCCC[C@@H](C)Oc3ccc(NS(=O)(=O)c4ccccc4)cc3C(=O)N([C@H](C)CO)C[C@H]2C)cc1` is listed as ?	.
`C[C@H](NC(=O)C[C@@H]1CC[C@H](NC(=O)C2CC2)[C@H](CO)O1)c1ccccc1` is listed as 3	4
`Cc1ccc(S(=O)(=O)Nc2ccc3c(c2)C(=O)N([C@H](C)CO)C[C@@H](C)[C@@H](CN(C)C(=O)Nc2c(C)noc2C)O3)cc1` is listed as 1	-5
`Cc1ccccc1S(=O)(=O)NCC[C@@H]1CC[C@H](NC(=O)C2CC2)[C@H](CO)O1` is listed as 12	7

Further records follow.
SMILES	Vaccinia stage	Vaccinia stage Venus
CCCN1C[C@H](C)[C@H](OC)CN(C)C(=O)c2ccc(NC(=O)Nc3ccccc3F)cc2OC[C@@H]1C	-11	-4
COc1ccccc1-c1cnc2c(c1)C(=O)N([C@H](C)CO)C[C@H](C)[C@@H](CN(C)Cc1cccnc1)O2	-14	-8
O=C(NCC1CC1)[C@H]1[C@H](CO)[C@H]2Cn3c(ccc(/C=C/c4ccccc4)c3=O)[C@@H]1N2C(=O)C1CC1	13	5
O=C(c1ccccc1F)N1CC2(C1)[C@H](c1ccccc1)[C@@H](CO)N2CC1CC1	8	14
Cc1ccc(S(=O)(=O)N[C@H]2C=C[C@H](CC(=O)N3CCN(c4ccccc4)CC3)O[C@H]2CO)cc1	-6	-7
CO[C@@H]1CN(C)C(=O)c2ccc(NC(=O)C3CC3)cc2OC[C@@H](C)N(Cc2ccc(F)cc2)C[C@H]1C	-23	-11
CCC(=O)N[C@@H]1CC[C@@H](CC(=O)NCc2ccccc2F)O[C@H]1CO	5	10
CO[C@@H]1CN(C)C(=O)c2ccc(NC(=O)C3CC3)cc2OC[C@H](C)N(Cc2cc(F)ccc2F)C[C@H]1C	-24	-23
C[C@@H]1CN([C@H](C)CO)C(=O)c2cc(C#CC3CC3)cnc2O[C@@H]1CN(C)C(=O)Nc1ccc(F)cc1	2	-1
CN1C(=O)c2cc(NC(=O)c3ccccc3Cl)ccc2OC[C@H]2O[C@@H](CC(=O)O)CC[C@H]21	0	3
O=C(NCC[C@H]1CC[C@@H](NS(=O)(=O)c2ccc(Cl)cc2)[C@@H](CO)O1)Nc1ccc(F)cc1	-13	-12
O=C(C[C@H]1C[C@@H]2c3cc(NC(=O)C4CCC4)ccc3O[C@@H]2[C@@H](CO)O1)NCC(F)(F)F	10	3
CO[C@H]1CC[C@@H]2CCN(C)C(=O)[C@H](C)N(C)C(=O)c3cccc(C#N)c3OC[C@@H]1O2	13	-1
CC(=O)N(C)C[C@H]1Oc2ncc(-c3ccc(F)cc3)cc2C(=O)N([C@H](C)CO)C[C@@H]1C	8	19
COc1ccc(NC(=O)N(C)C[C@H]2Oc3c(NC(=O)C4CC4)cccc3C(=O)N([C@H](C)CO)C[C@H]2C)cc1	3	7
O=C(C[C@@H]1C[C@@H]2c3cc(NC(=O)c4cccnc4)ccc3O[C@@H]2[C@H](CO)O1)NCc1ccccc1F	20	10
Cc1ccccc1-c1ccc2c(c1)O[C@@H](CN(C)C(=O)Nc1ccccc1)[C@@H](C)CN([C@H](C)CO)S2(=O)=O	?	.
CN(C[C@H]1N[C@@H](CO)[C@H]1c1ccc(-c2cccc(F)c2)cc1)S(C)(=O)=O	1	19
CC(C)NC(=O)NCC[C@@H]1CC[C@H](NC(=O)CCN2CCCCC2)[C@H](CO)O1	13	10
O=C(Nc1ccccc1)N1C[C@@H]2[C@H](c3ccccc31)[C@H](CO)N2C(=O)c1ccncc1	12	9
COc1cccc(-c2ccc3c(c2)O[C@H](CN(C)C(=O)c2ccccc2F)[C@H](C)CN([C@H](C)CO)S3(=O)=O)c1	?	-13
CCCN(C)C[C@@H]1OCc2cn(nn2)CCCC(=O)N([C@@H](C)CO)C[C@@H]1C	9	12
COc1ccc(NC(=O)Nc2ccc3c(c2)C(=O)N([C@H](C)CO)C[C@H](C)[C@H](CN(C)C(=O)c2ccccc2)OCCCC[C@@H](C)O3)cc1	31	13
CC(C)NC(=O)Nc1cccc2c1O[C@@H](CN(C)Cc1ccccc1)[C@H](C)CN([C@@H](C)CO)C2=O	7	4
Cc1ccc(S(=O)(=O)Nc2ccc3c(c2)CC(=O)N([C@H](C)CO)C[C@H](C)[C@@H](CN(C)C(=O)Nc2cccc4ccccc24)O3)cc1	8	13
COc1ccc(NC(=O)N[C@@H]2CC[C@H](CC(=O)NC3CCCCC3)O[C@H]2CO)cc1	3	8
CCS(=O)(=O)N1CC2(CN(Cc3cccc(Cl)c3)[C@H](CO)c3c2c2ccc(OC)cc2n3C)C1	-20	-16
N#C[C@@H]1[C@@H](c2ccc(C#Cc3ccc(F)cc3)cc2)[C@H](CO)N1C(=O)C1CCC1	-16	-10
O=C(C[C@H]1CC[C@H](NC(=O)Nc2ccc(C(F)(F)F)cc2)[C@H](CO)O1)NCCN1CCCC1	-6	-7
O=C(Nc1cc(F)ccc1F)N1CCCCN2[C@H](CO)[C@H](c3ccc(-c4ccccc4)cc3)[C@@H]2C1	-11	-11
C[C@@H]1CN([C@@H](C)CO)C(=O)c2c(c3ccccc3n2C)-c2ccccc2CO[C@H]1CN(C)S(C)(=O)=O	15	8
CC(=O)NC[C@@H]1[C@H](c2ccc(-c3ccccc3)cc2)[C@H](CO)N1C(=O)C1CCC1	-7	-7
CC(C)CC#Cc1ccc2c(c1)O[C@H](CN(C)C(=O)NC(C)C)[C@H](C)CN([C@@H](C)CO)S2(=O)=O	-18	-10
C[C@@H]1CN([C@H](C)CO)C(=O)c2cc(NC(=O)C3CCCCC3)ccc2O[C@@H]1CN(C)Cc1ccccc1	-1	7
C[C@H]1CN([C@@H](C)CO)C(=O)c2cc(Br)cnc2O[C@@H]1CN(C)C(=O)C1CCCCC1	-1	6
COc1ccc(NC(=O)Nc2ccc3c(c2)C(=O)N([C@H](C)CO)C[C@@H](C)[C@@H](CN(C)Cc2ccncc2)OCCCC[C@@H](C)O3)cc1	-1	-7
Cc1cc(C(=O)Nc2cccc3c2O[C@@H](CN(C)S(=O)(=O)c2ccc(Cl)cc2)[C@@H](C)CN([C@H](C)CO)C3=O)n(C)n1	18	18
COC(=O)C[C@H]1CC[C@H]2[C@@H](COc3ccc(NC(=O)c4cc(C)on4)cc3C(=O)N2C)O1	9	9
CCC(=O)Nc1ccc2c(c1)C(=O)N(C)C[C@@H](OC)[C@@H](C)CN(CC1CCCCC1)[C@@H](C)CO2	0	0
Cc1cc(C(=O)Nc2cccc3c2O[C@H](CN(C)CC2CC2)[C@H](C)CN([C@@H](C)CO)C3=O)n(C)n1	9	0
Cc1ccc(S(=O)(=O)N(C)C[C@@H]2Oc3ccc(NC(=O)C4CCCCC4)cc3C(=O)N([C@@H](C)CO)C[C@@H]2C)cc1	-14	-17
C[C@@H]1CCCCO[C@@H](CN(C)S(=O)(=O)c2cccs2)[C@@H](C)CN([C@H](C)CO)C(=O)c2cc(NS(=O)(=O)c3cccs3)ccc2O1	15	6
CN(C[C@H]1[C@@H](c2ccccc2)[C@@H](CO)N1Cc1ccccn1)S(C)(=O)=O	11	10
COc1ccc(S(=O)(=O)Nc2ccc3c(c2)C(=O)N([C@@H](C)CO)C[C@H](C)[C@@H](CN(C)S(=O)(=O)c2cccs2)OCCCC[C@H](C)O3)cc1	-31	-19
COCC(=O)Nc1ccc2c(c1)C(=O)N(C)[C@@H]1CC[C@@H](CC(=O)NC3Cc4ccccc4C3)O[C@@H]1CO2	7	3
O=C(Nc1cccc(F)c1)N1CC(=O)N2[C@@H](CO)[C@H](c3ccc(C#Cc4cccnc4)cc3)[C@@H]2C1	3	5
N#C[C@@H]1[C@@H](c2ccccc2C2=CCCCC2)[C@@H](CO)N1S(=O)(=O)c1cccc(F)c1	-14	-19
COc1ccccc1NC(=O)N1CC(=O)N2[C@H](C1)[C@H](c1ccc(C#CC(C)C)cc1)[C@@H]2CO	-3	0
O=C(C[C@@H]1C[C@@H]2c3cc(NC(=O)C4CCC4)ccc3O[C@@H]2[C@H](CO)O1)NCc1ccc(Cl)cc1	15	19
COc1ccc(NC(=O)N(C)C[C@H]2OCCCC[C@@H](C)Oc3ccc(NC(=O)CCC(F)(F)F)cc3C(=O)N([C@@H](C)CO)C[C@H]2C)cc1	8	-5
O=C(NCC[C@@H]1CC[C@H](NC(=O)C2CCOCC2)[C@H](CO)O1)c1cc(Cl)cc(Cl)c1	-1	1
COCC(=O)N(C[C@H]1N[C@@H](CO)[C@@H]1c1ccc(-c2cccnc2)cc1)C(C)C	-1	5
Cn1cnc(S(=O)(=O)N2CC[C@@H]3[C@@H](CO)Nc4ccc(-c5ccc(F)cc5)cc4[C@@H]32)c1	32	15
COC(=O)c1ccc([C@@H]2C=C(C(=O)NCc3ccccc3)O[C@H](OCCCCO)C2)cc1	4	9
CC(=O)Nc1ccc2c(c1)C(=O)N(C)[C@@H]1CC[C@@H](CC(=O)NCc3ccc(F)cc3)O[C@H]1CO2	2	4
COc1ccc(NC(=O)Nc2ccc3c(c2)CC(=O)N([C@H](C)CO)C[C@H](C)[C@@H](CN(C)S(=O)(=O)c2cn(C)cn2)O3)cc1	20	20

These rows are one share of the data. The share of hits here may be higher or lower than overall.
